Bioassay records: PubChem, ICCB-Longwood Screening Facility, Harvard Medical School
Sa growth inh – blocks Staphylococcus aureus growth; S. aureus RN4220 growth, OD600, 20 h, 42 °C; active compounds read low; AID 720641; 0.53% of 170,000 active; relative growth, % (concentration not given with the values);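 active = growth at 42 °C up to 50% and 20 or more points under that at 30 °C, or under 10% at both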;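 also: 300 nL library stock went into each well; scaled to the means of positive and negative controls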
HCMV UL50-53 inh – disrupts HCMV UL50-UL53 complex binding; HTRF UL50-UL53 interaction, normalized percent inhibition; inhibition, % (concentration not given with the values); 0.15% of 190,000 active;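 active = both replicates at 50% or more, plus weaker picks with an unusually low signal ratio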;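 also: stock transfer was 100 nL into about 20 µL; 0% = negative control wells and 100% = wells with untagged competitor protein; inactives centre near -12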
GIV Gai3 FP – GIV-Galpha-i interaction inhibition; P08753; Galpha-i3/FITC-GIV peptide fluorescence polarization, 90 min; active compounds read low; scaled: aluminum fluoride 0%, vehicle 100%; percent of control (FP), % (no concentration beside the values); 0.42% of 210,000 active; AID 1224905;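 active = replicate mean at 85% of control or lower, very high polarization wells dropped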;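 also: wells of about 15 µL received 100 nL stock; the first replicate is given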
Target sequence (P08753 whole entry, looked up): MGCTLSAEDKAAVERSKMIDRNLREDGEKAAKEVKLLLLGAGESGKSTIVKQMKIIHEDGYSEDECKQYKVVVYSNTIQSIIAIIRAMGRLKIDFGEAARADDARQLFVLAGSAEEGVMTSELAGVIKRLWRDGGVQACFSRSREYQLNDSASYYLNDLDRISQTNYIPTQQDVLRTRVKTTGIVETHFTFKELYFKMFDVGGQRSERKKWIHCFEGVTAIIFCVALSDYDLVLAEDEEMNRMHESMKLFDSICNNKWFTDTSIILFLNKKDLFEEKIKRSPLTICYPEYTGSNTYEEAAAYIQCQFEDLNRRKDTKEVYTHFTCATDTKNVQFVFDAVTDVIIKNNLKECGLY
Sa growth inh second temp – further read-out of Sa growth inh, marked with its call; relative growth, %; measured here: growth at 30 °C;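 optical density after 20 h as mean of two plates; 100% = untreated growth and lower means inhibition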
Active calls of the source: *; nt = no result given; & = joins results of further samples. Not all compounds are listed. The share of hits here may be higher or lower than overall.

Start of the data: the first 4 entries, ahead of the listing:
SMILES	Sa growth inh	Sa growth inh second temp	HCMV UL50-53 inh	GIV Gai3 FP
Cc1nc2ccccc2c(=O)n1-c1ccc(Cl)cc1	106	90	-4	nt
N#CSC12CN3CN(CN(C3)C1)C2	113	82	-8	100
CCCCc1nn2c(=O)cc(COC(=O)Cc3ccccc3)nc2s1	89	91	nt	104
O=c1c2ccccc2nc(CNc2ccccc2)n1-c1ccccc1	115	87	nt	104

The list itself, repeating the preview:
SMILES	Sa growth inh	Sa growth inh second temp	HCMV UL50-53 inh	GIV Gai3 FP
Cc1nc2ccccc2c(=O)n1-c1ccc(Cl)cc1	106	90	-4	nt
N#CSC12CN3CN(CN(C3)C1)C2	113	82	-8	100
CCCCc1nn2c(=O)cc(COC(=O)Cc3ccccc3)nc2s1	89	91	nt	104
O=c1c2ccccc2nc(CNc2ccccc2)n1-c1ccccc1	115	87	nt	104
Cc1ccc2c(c1)c1c3n2CNCC3CCC1 (stereo not given)	68	12	-57	108
CC1(C)C(C(=O)Nc2ccccc2C(F)(F)F)C1(C)C	109	98	-12	nt
Cc1[nH]c2ccc(O)cc2c1CCN	nt	nt	-8&-22	98
Cc1ccc(C(=O)COC(=O)Cc2ccccc2)cc1	99	98	-2	nt
CNCCc1c[nH]c2ccc(O)cc12	nt	nt	-22	103
O=C(Nc1ccon1)c1cccn(Cc2cccc(Cl)c2)c1=O	107	91	nt	104
OC1CCNC2CCCCC12 (stereo not given)	105	88	7	104
CCCN1CC2(COC)CC[C@H](OC)[C@@]34CC[C@H](COC)[C@@H](O)C[C@@](C)(O)C(O)([C@@H](OC)[C@H]23)[C@H]14	101	82	-3	nt
Nc1ccncc1Cl	92	95	-13	nt
O=C1NC(=O)C2(C(=O)N1)C(c1ccc(Cl)cc1)NC(=S)NC2c1ccc(Cl)cc1 (stereo not given)	101	94	nt	101
O=c1c2ccccc2nc(CSc2ncnc3nc[nH]c23)n1-c1ccc(Cl)c(Cl)c1	nt	nt	-3	108
C[C@H]1CN(C2CCC(C#N)(c3ccc(F)cc3)CC2)CC[C@@]1(C(=O)O)c1ccccc1 (stereo not given in full)	nt	nt	-31	96
O=C(CN1C(=O)CN=C(c2ccccc2)c2ccccc21)NCCC1=CCCCC1	nt	nt	-12	100
CC(Cc1c[nH]c2ccccc12)N(Cc1ccccc1)Cc1ccccc1 (stereo not given)	53	79	nt	98
COCCOC(=O)C1=C(N)OC(C)=C(C(=O)OC(C)C)C12C(=O)Nc1ccccc12 (stereo not given)	nt	nt	-10	103
CCC1(CC)C(=O)NC(=NCc2ccc(OC)cc2)N(C)C1=O	65	104	7	107
OC1C2CCN(c3ccccc32)C1Cc1ccccc1 (stereo not given)	91	89	nt	100
CCCN(CCC)[C@@H]1CCc2ccc(O)cc2C1	nt	nt	-2	100
O=C(C(Cc1ccccc1)NS(=O)(=O)c1ccc(F)cc1)N1CCC2(CC1)OCCO2 (stereo not given)	100	86	nt	103
NCCc1cccs1	87	99	11	nt
CCOC(=O)c1c(NS(=O)(=O)c2ccccc2)n(CCCOC)c2nc3ccccc3nc12	88	95	-16	nt
O=C(CNC(=O)c1cccc(Cl)c1)Nc1ccc(Br)cc1C(=O)c1ccccc1	86	53	nt	106
Cc1cc(OCc2c(F)cccc2Cl)c2c3c(c(=O)oc2c1)CCCC3	104	84	nt	100
C=CCN1C(=O)NC(=O)/C(=C/c2ccco2)C1=O	92	67	nt	119
O=C1NC(=S)NC(=O)C1=Cc1cc(Br)ccc1OCc1ccc(Cl)cc1	nt	nt	-10	102
CCOP(=S)(NC(C)(C)C)OCC	104	84	101	99
N#Cc1cccc(NC(=O)c2sc3nc4c(cc3c2N)N2CCC4CC2)c1	106	99	nt	104
O=C(COc1ccc(OCc2ccccc2)cc1)NC1CN2CCC1CC2 (stereo not given)	80	95	-15	nt
Cc1cccc(Cn2cccc(C(=O)Nc3nc4ccccc4s3)c2=O)c1	111	102	nt	104
CC(N)CCc1ccc(Cl)cc1 (stereo not given)	126	84	-21	105
OC1C2CCC1C(N1CCCC1)CC2 (stereo not given)	104	102	0	100
COC(=O)c1cc(C(O)(C(=O)OC)C(F)(F)F)c(/N=C/N(C)C)s1 (stereo not given)	99	92	-36	nt
COc1ccc(C2c3cccn3-c3ccccc3CN2C(=O)CCC(=O)NC2CCCCC2)cc1 (stereo not given)	nt	nt	-5	106
O=C(Cn1ccc2ccccc2c1=O)NCC(=O)N1CCC2(CC1)OCCO2	83	95	5	101
Cc1ccccc1N1CCNCC1	95	97	19	105
COC(CN)c1ccc2c(c1)OCCO2 (stereo not given)	106	95	9	100
Cc1[nH]c2ccccc2c1CCCNC1CCCCC1	119	98	7	99
CC1(C)CSC(=NCc2ccccc2)N1	98	92	-17	nt
OC1(c2cccc(F)c2)CC2CCC(C1)N2Cc1nnnn1CCc1ccccc1 (stereo not given)	89	69	-14	104
Cc1ccc(C2(O)CN3CCC2CC3)cc1 (stereo not given)	nt	nt	11	99
CCOc1cc2c(cc1OCC)-n1cccc1C(C1CCCCC1)NC2 (stereo not given)	100	79	-6	nt
O=C1Nc2ccc(Cl)cc2C(c2cccc(O)c2)=NC1O (stereo not given)	113	96	0	100
CC1CCN(CC(=O)c2ccc(OC(F)F)cc2)CC1	97	91	5	nt
O=C(O)c1cncc(O)c1	110	87	-14	97
CC(=O)OC1CCC2C3CCC4CCC(=O)CC4(C)C3CCC12C (stereo not given)	98	89	-13	99
CC(=O)Nc1ccc(C=C(C#N)C#N)cc1	88	76	2	95
COc1ccc(-n2c(C)cc(/C=C3/C(=O)NC(=O)N(Cc4ccco4)C3=O)c2C)cc1	103	98	1	94
COc1ccccc1N1CCNCC1	nt	nt	-16	97
COc1ccc(Cc2nccc3cc(OC)c(OC)cc23)cc1OC	98	96	-2&-21&-2	102&101
CNC(C)[C@@H]1CC[C@@H](N)[C@@H](OC2[C@@H](N)C[C@@H](N)[C@H](OC3OC[C@](C)(O)[C@H](NC)[C@H]3O)[C@H]2O)O1 (stereo not given in full)	84	80	-16	nt
C=C1CC2C(CC[C@]3(C)C(=O)CCC23)[C@@]2(C)C=CC(=O)C=C12 (stereo not given in full)	88	87	-64&-86	nt
N=C1c2ccccc2CN1NC(=O)c1ccccc1	107	90	-29	nt

Continuation.
SMILES	Sa growth inh	Sa growth inh second temp	HCMV UL50-53 inh	GIV Gai3 FP
O=c1c2ccccc2nc(/C=C/c2ccccc2F)n1-c1cccc(O)c1	99	84	-16	101
CCN1C[C@]2(COC)CC[C@H](O)[C@@]34C5C[C@@H]6[C@@H](OC)C[C@@](O)(C5[C@H]6OC(C)=O)[C@@H](CC23)[C@@H]14 (stereo not given in full)	99	93	-16	96
COC(=O)C1=C(N)OC(C)=C(C(=O)OC(C)C)C12C(=O)Nc1ccccc12 (stereo not given)	nt	nt	8	105
CN1C(=O)C2(c3ccccc31)C(C(=O)N1CCC3(CC1)OCCO3)CC1CCCN12 (stereo not given)	92	97	-7	101
CCN(CC)C(=O)c1ccc(NC(=O)Nc2ccccc2F)cc1	109	104	-9	nt
CC(C)(C)C(=O)NC1CCSC1=O (stereo not given)	143	85	nt	104
CC(C)N(CCC(C(N)=O)(c1ccccc1)c1ccccn1)C(C)C (stereo not given)	90	88	-54&-26&-17&-46&-3&-15	103&104
OC1/C(=C/c2ccccc2C(F)(F)F)N2CCC1CC2 (stereo not given)	nt	nt	-1	106
O=C(c1ccccc1)c1cc(Cl)ccc1NC(=O)c1cc2ccccc2oc1=O	nt	nt	1	107
O=C(NC1CCCCC1)c1cc2ccccc2oc1=O	107	87	-30	96
Cc1sc(-n2c(C)cc(C=C3C(=O)NC(=S)NC3=O)c2C)c(C#N)c1C	82	32	3	113
O=C1NC(=O)N(CCc2ccc(F)cc2)C(=O)/C1=C/c1cccc2ccccc12	101	78	-22	nt
Cc1ccccc1CN1C(=O)CN=C(c2ccccc2)c2cc(Cl)ccc21	77	69	nt	104
Cn1cc(C(=O)OCc2ccc(C#N)cc2)c2ccccc21	88	86	-26	nt
c1cc2c(cc1CN1CCNCC1)OCCO2	96	97	-36	nt
Cn1cc(C(=O)c2ccccc2)c2ccccc21	79	73	nt	96
CN1CC[C@@]2(C)c3cc(OC(=O)Nc4ccccc4)ccc3N(C)[C@@H]12	nt	nt	-31	104
C/C(=N/O)c1c(C)[nH]c2ccccc12	102	87	-3	114
Cc1nn(Cc2ccccc2Cl)c(Cl)c1C(=O)OCC(=O)NCc1ccco1	66	93	-5	nt
CC1(C)C(C(=O)Nc2cc(Cl)ccn2)C1(C)C	94	74	-11	98
CC(=O)OCc1ccc(C=C(C#N)C#N)o1	85	59	-10	94
O=C(C1CCCO1)N1CCC2(CC1)OCCO2 (stereo not given)	103	98	-1	101
COc1ccc(CN2CCN(C(=O)COc3ccccc3)CC2)c(OC)c1	111	103	45	108
CCc1[o+]c(-c2ccc(OC)cc2)cc2cc(OC)c(OC)cc12	129	95	2	nt
CCCCC1CCC2(C)C3=C(CCC3)CCN2C1 (stereo not given)	67	55	0	103
O=[N+]([O-])c1cc(O)c(O)c([N+](=O)[O-])c1	nt	nt	-105&-160	103
COc1cc(CNCCc2ccccc2)cc(OC)c1	125	108	-9	105
CCN(CC)C(=O)c1ccc2c(c1)C1C3CCC(C3)C1C(c1ccccc1)N2 (stereo not given)	107	51	nt	97
Cc1c(C(=O)Cn2cnc3ccccc32)c2ccccc2n1C	105	92	-14	105
COc1ccc(C(C(=O)NC2CCCCC2)N(CCN2CCOCC2)C(=O)Cc2c[nH]c3ccccc23)cc1OC (stereo not given)	98	106	-4	99
CC(C)C(O)(C(=O)OC[C@@H]1CC[N+]2([O-])CCC[C@@H]12)C(C)O (stereo not given in full)	107	97	0	106
COCCNC(=O)C1c2ccccc2C(=O)N2CCCCC12 (stereo not given)	95	89	-20	104
CCc1nc2cccnc2n1-c1ccc(CC(=O)N2CCN(C)CC2)cc1	99	96	-17	107
Cc1[nH]c2c(C)cccc2c1C(O)CN1CCCCC1 (stereo not given)	nt	nt	-18	104
CCN(CC)c1nc2c(C)cccn2c(=O)c1C=C1C(=O)NC(=O)NC1=O	114	94	nt	106
COC(C)C(O)(C(=O)OC1=CCN2CC[C@H](O)[C@@H]12)C(C)C (stereo not given in full)	89	89	-20	nt
Cc1cc(C)c2oc(-c3ccc(N/C=c4\c(C)c(C#N)c5nc6ccccc6n5c4=O)cc3)nc2c1	100	96	3	73*
Cc1cc(/C=C2\C(=O)NC(=S)N(c3ccccc3F)C2=O)c(C)n1-c1cc(C(=O)O)cc(C(=O)O)c1	nt	nt	-27	90
CN(C)CCN(C(=O)Cc1ccccc1)c1nc2cc3c(cc2s1)OCCO3	98	100	22	102
CN(C)c1cccc2c(C#N)ccc(N(C)C)c12	94	80	-75	nt
CC1CCN(CC(O)c2c[nH]c3ccccc23)CC1 (stereo not given)	nt	nt	-44	124
COc1cc(C=C2C(=O)NC(=O)NC2=O)ccc1OCc1ccc(C(=O)O)cc1	nt	nt	20	111
COc1ccc(C(=O)c2nc3ccccc3n2C(C)C)cc1OC	112	83	nt	99
COCCOC(=O)C1=C(N)OC(C)=C(C(=O)OC)C12C(=O)Nc1ccc(Br)cc12 (stereo not given)	nt	nt	-16	102
CN(C(=O)COC(=O)c1cn(C)c2ccccc12)C1CCCCC1	96	83	-26	nt
CCOC(=O)c1c(CN2CCCC2)n(Cc2ccccc2)c2cc(Br)c(O)cc12	nt	nt	-13	98
O=C1C=C2C=CC3CC2(O1)C1CCCCN31 (stereo not given)	92	85	5	99
O=C(NC1CCCCC1)Oc1cc2oc(=O)sc2cc1Cl	22	24	nt	97
CCOP(=S)(OCC)C1(Nc2ccc(C)cc2)CCCCC1	79	91	nt	105
Cc1c2ccncc2c(C)c2c1[nH]c1ccccc12	nt	nt	-43&-68	99
COc1ccccc1C(C)NC(C)C(=O)c1c(N)n(C)c(=O)n(C)c1=O (stereo not given)	120	97	10	nt
NCCc1nc2ccccc2s1	85	95	-3	nt
CCCCN(C)c1nc2ccccc2c(=O)n1-c1ccc(Cl)cc1	118	93	nt	102
Nc1ccccc1C(=O)OC1CSC1	96	103	-13	99
C=CCN1C(=O)NC(=O)/C(=C/c2cn(Cc3ccc(Cl)cc3)c3ccccc23)C1=O	nt	nt	-18	90
CC(C)n1[nH]c(=O)c2c1NC(=O)CSC2c1ccc(Cl)cc1 (stereo not given)	nt	nt	-18	94
Fc1cc(Cl)ccc1C1NCCc2[nH]cnc21 (stereo not given)	nt	nt	-20	106
